Screening results (PubChem)
T. gondii: Toxoplasma gondii ME49Luc growth in HeLa cells, luciferase, no IFN-y, primary screen (AID 1259421); activity change, negative = inhibition, %; actives 9.6% (n = 6,400); T. gondii ME49Luc in HeLa, luciferase, 72 h, no IFN-y; active compounds read low; reference of the scale and settings of repeat entries not given here; many of its hits are not listed in these tables;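 active = activity change below -70%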;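 note: about 20 µM from a 10 mM stock diluted 500-fold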
Starred values were filed as active, the others as inactive; & = joins results of further samples; ! = repeats disagree.

The opening 5 entries (preview)
no.	SMILES	T. gondii
1	NS(=O)(=O)c1cc2c(cc1Cl)NC=NS2(=O)=O	3&-7
2	CCCCCCCCCCCCCCCC(=O)OC(C)C	4
3	C[C@H](NC(=O)Cc1cc(F)cc(F)c1)C(=O)N[C@@H]1C(=O)N(C)c2ccccc2-c2ccccc21	-81*
4	CC(C)(C(=O)NCC(F)(F)C(F)(F)F)C(=O)N[C@@H]1C(=O)Nc2ccccc2-c2ccccc21	-88*
5	CC(C)(O)CC[C@@H](O)[C@](C)(O)C1CC[C@@]2(O)C3=CC(=O)C4C[C@@H](O)[C@@H](O)C[C@]4(C)C3CC[C@]12C (stereo partly specified)	13

The listing (from the top)
no.	SMILES	T. gondii
1	NS(=O)(=O)c1cc2c(cc1Cl)NC=NS2(=O)=O	3&-7
2	CCCCCCCCCCCCCCCC(=O)OC(C)C	4
3	C[C@H](NC(=O)Cc1cc(F)cc(F)c1)C(=O)N[C@@H]1C(=O)N(C)c2ccccc2-c2ccccc21	-81*
4	CC(C)(C(=O)NCC(F)(F)C(F)(F)F)C(=O)N[C@@H]1C(=O)Nc2ccccc2-c2ccccc21	-88*
5	CC(C)(O)CC[C@@H](O)[C@](C)(O)C1CC[C@@]2(O)C3=CC(=O)C4C[C@@H](O)[C@@H](O)C[C@]4(C)C3CC[C@]12C (stereo partly specified)	13
6	N#CC(C#N)=C(N)/C(C#N)=C/c1cc(O)c(O)c(O)c1	5
7	CC[C@@H](CO)NCCN[C@@H](CC)CO	-6&9
8	CC1(C)O[C@@H]2CC3C4CCC5=CC(=O)CCC5(C)C4(F)C(O)CC3(C)[C@]2(C(=O)CCl)O1 (stereo partly specified)	3&-3
9	CC(C)C[C@H](NC(=O)[C@@H](NC(=O)c1cccc(-c2ccccc2)n1)[C@@H](C)O)B(O)O	-71*
10	CC[C@H](C)[C@H]1O[C@]2(CC[C@@H]1C)C[C@@H]1C[C@@H](C/C=C(\C)[C@@H](O[C@H]3C[C@H](OC)[C@@H](O[C@H]4C[C@H](OC)[C@@H](O)[C@H](C)O4)[C@H](C)O3)[C@@H](C)/C=C/C=C3\CO[C@@H]4[C@H](O)C(C)=C[C@@H](C(=O)O1)[C@]34O)O2	-79*!
11	O=C(CCc1ccc(O)cc1)c1c(O)cc(O)cc1O[C@@H]1O[C@H](CO)[C@@H](O)[C@H](O)[C@@H]1O	6
12	CCCCc1nn(-c2ccccc2C(F)(F)F)c(=O)n1Cc1ccc(-c2ccccc2S(=O)(=O)NC(=O)c2sccc2C)cc1	-11&-4
13	Nc1nc2c(nc(Br)n2[C@@H]2O[C@@H]3COP(=O)(O)O[C@H]3[C@H]2O)c(=O)[nH]1	7
14	CC(C)c1cc(C(=O)N2Cc3ccc(CN4CCN(C)CC4)cc3C2)c(O)cc1O	-63
15	CCC[C@@H]1C[C@@H](C(=O)N[C@H]([C@H]2O[C@H](SC)[C@H](O)[C@@H](O)[C@H]2O)[C@H](C)O)N(C)C1	-17

Six entries already listed, ordered by molar mass, rising.
no.	SMILES	T. gondii
6	N#CC(C#N)=C(N)/C(C#N)=C/c1cc(O)c(O)c(O)c1	5
1	NS(=O)(=O)c1cc2c(cc1Cl)NC=NS2(=O)=O	3&-7
9	CC(C)C[C@H](NC(=O)[C@@H](NC(=O)c1cccc(-c2ccccc2)n1)[C@@H](C)O)B(O)O	-71*
13	Nc1nc2c(nc(Br)n2[C@@H]2O[C@@H]3COP(=O)(O)O[C@H]3[C@H]2O)c(=O)[nH]1	7
4	CC(C)(C(=O)NCC(F)(F)C(F)(F)F)C(=O)N[C@@H]1C(=O)Nc2ccccc2-c2ccccc21	-88*
12	CCCCc1nn(-c2ccccc2C(F)(F)F)c(=O)n1Cc1ccc(-c2ccccc2S(=O)(=O)NC(=O)c2sccc2C)cc1	-11&-4

Further compounds follow:
no.	SMILES	T. gondii
16	COc1cc2c(cc1OC)C(C(C(=O)N(CCc1ccc(OC)c(OC)c1OC)CCc1ccc(OC)c(OC)c1OC)c1ccccc1)=NCC2 (stereo unspecified)	24
17	C/C(=C(/CCOC(=O)C(C)C)SS/C(CCOC(=O)C(C)C)=C(\C)N(C=O)Cc1cnc(C)nc1N)N(C=O)Cc1cnc(C)nc1N	-6
18	Clc1ccc(C(Cn2ccnc2)OCc2ccc(Sc3ccccc3)cc2)c(Cl)c1 (stereo unspecified)	-73*
19	CCCc1c(OCCCOc2ccc(OCC(=O)O)cc2)ccc(CC=O)c1O	0
20	Cc1cc(N2CCOCC2)ccc1Nc1nc(NC2CCCCC2)c2[nH]cnc2n1	-51
21	CCOC(=O)CNC(=O)[C@@H]1CCCN1C(=O)Cc1ccccc1	14
22	CC(C)C(NS(=O)(=O)c1ccc(-c2ccc(Br)cc2)cc1)C(=O)O (stereo unspecified)	10
23	CC(=O)c1cc([N+](=O)[O-])c(Sc2ccc(F)cc2F)s1	-85*
24	O=C1c2ccccc2C(=O)C1c1ccc(Cl)cc1	14&14
25	NCCNS(=O)(=O)c1cccc2c(Cl)cccc12	-1
26	CCCCCCCCCCCCCCCC(=O)OC[C@H](NC(=O)C(Cl)Cl)[C@H](O)c1ccc([N+](=O)[O-])cc1	16&7
27	C#CCN1C(C)=C(C(=O)OC)C(c2cccc([N+](=O)[O-])c2)C(C(=O)OCC)=C1C (stereo unspecified)	14
28	CC1(C)C(=O)C=C[C@@]2(C)C1C=C[C@]1(C)C2CC[C@@]2(C)[C@H](c3ccoc3)OC(=O)[C@H]3O[C@]321 (stereo partly specified)	-89*
29	O=c1ccc2ccc(O)c(O)c2o1	4&11
30	O=C(O)/C=C/c1ccc(-c2ccc(O)c(C34CC5CC(CC(C5)C3)C4)c2)cc1	-97*

Some of the entries above, reformatted:
21: CCOC(=O)CNC(=O)[C@@H]1CCCN1C(=O)Cc1ccccc1
  T. gondii: 14
22: CC(C)C(NS(=O)(=O)c1ccc(-c2ccc(Br)cc2)cc1)C(=O)O (stereo unspecified)
  T. gondii: 10
23: CC(=O)c1cc([N+](=O)[O-])c(Sc2ccc(F)cc2F)s1
  T. gondii: -85*
24: O=C1c2ccccc2C(=O)C1c1ccc(Cl)cc1
  T. gondii: 14&14

The listing continues.
no.	SMILES	T. gondii
31	CC(C)C1C2CCC(C2)C1N (stereo unspecified)	-32
32	CC(O)(C(=O)Nc1ccc(S(=O)(=O)c2ccccc2)cc1)C(F)(F)F (stereo unspecified)	15&5
33	COc1cc(C[C@H]2C(=O)OC[C@@H]2Cc2ccc(OC)c(OC)c2)ccc1O	3
34	COc1ccc(S(=O)(=O)Nc2cccnc2Nc2ccc(O)cc2)cc1	-39
35	CC(/C=C/C(=O)NO)=C\[C@@H](C)C(=O)c1ccc(N(C)C)cc1	-70
36	CC(=O)Oc1cccc(C(=O)O)c1OC(C)=O	1
37	NC(=S)N/N=C/c1ccncc1	7
38	Nc1nc2c(cnn2CCc2ccccc2)c2nc(-c3ccco3)nn12	60&17
39	O=C(O)C1CSCN1 (stereo unspecified)	26
40	O=C(/C=C/c1ccc(O)cc1)c1ccc(O)cc1O	2&15
41	Cc1nccn1C[C@@H]1CCc2c(c3ccccc3n2C)C1=O	-3
42	Cc1cc2c(OCC(CNC(C)(C)C)OC(=O)c3ccccc3)cccc2[nH]1 (stereo unspecified)	18
43	COc1cc(OC)c2c(c1)OC(c1ccccc1)CC2=O (stereo unspecified)	35
44	CC(C)n1nc(-c2cc3cc(O)ccc3[nH]2)c2c(N)ncnc21	-50
45	NS(=O)(=O)c1nn2cc(-c3ccccc3)nc2s1	172&155

The list goes on:
no.	SMILES	T. gondii
46	N[C@H](C(=O)O)c1ccc(O)c(C(=O)O)c1	-6
47	O=C1OC(=O)C2C3CCC(O3)C12 (stereo unspecified)	-85*
48	CN(C)CCCN1c2ccccc2CCc2ccc(Cl)cc21	-19&23
49	Cc1cc(O)cc2c1O[C@](C)(CCC[C@H](C)CCC[C@H](C)CCCC(C)C)CC2	-5
50	CCCn1c(=O)c2[nH]c(C3CCCC3)nc2n(CCC)c1=O	12&5
51	CC[C@@H](C(=O)O)C1CC[C@H](C)C([C@@H](C)[C@H](O)[C@H](C)C(=O)[C@H](CC)C2O[C@]3(C=C[C@@H](O)[C@]4(CC[C@@](C)(C5CC[C@](O)(CC)[C@H](C)O5)O4)O3)[C@H](C)C[C@@H]2C)O1 (stereo partly specified)	-81*
52	CC(C)[C@H](NS(=O)(=O)c1ccc(-c2ccc(Br)cc2)cc1)C(=O)O	5
53	COc1ccc2oc(-c3ccccc3OC)cc(=O)c2c1	44
54	CC(C)(C)c1ccc(S(=O)(=O)/C=C/C#N)cc1	-3
55	CN1CCN(CCCCN2C(=O)CN(/N=C/c3ccc(-c4ccc(Cl)cc4)o3)C2=O)CC1	16
56	COc1cc2c(cc1OC)[C@@H]1C(=O)c3ccc4c(c3O[C@@H]1CO2)C=CC(C)(C)O4	-21
57	CNC(=O)[C@@H](c1ccccc1)N1CCc2cc(OC)c(OC)cc2[C@@H]1CCc1ccc(C(F)(F)F)cc1	8
58	CC(C)(C)C(=O)OCOP(=O)(COCCn1cnc2c(N)ncnc21)OCOC(=O)C(C)(C)C	-87*
59	CCCC[C@H](C)C[C@H](O)/C=C/[C@H]1[C@H](O)CC(=O)[C@@H]1CCCC/C=C/C(=O)O	0
60	CN1CCN2c3ncccc3Cc3ccccc3C2C1 (stereo unspecified)	11&19

Later entries:
no.	SMILES	T. gondii
61	O=c1[nH]cnc2c1cnn2[C@@H]1O[C@H](CO)[C@H](O)C1O (stereo partly specified)	19
62	O=C1CCC(N2C(=O)c3ccccc3C2=O)C(=O)N1 (stereo unspecified)	6&-22
63	COc1ccc2c(Oc3ccc(NC(=O)c4c(C)n(CC(C)(C)O)n(-c5ccccc5)c4=O)nc3)ccnc2c1	-83*!
64	CCS(=O)(=O)CCn1c([N+](=O)[O-])cnc1C	14
65	NC(=O)c1ccccc1O	5&3
66	CN(CCc1ccc(Cl)c(Cl)c1)CC(O)COc1ccc(NS(C)(=O)=O)cc1 (stereo unspecified)	-8&-4
67	C[C@H](NC(=O)c1sccc1OCc1ccc(Cl)cc1)c1ccccc1	29
68	COC1(C2=NCCN2)COc2ccccc2O1 (stereo unspecified)	-3&5
69	Cc1cnc(Nc2ccc(N3CCN(C)CC3)cc2)nc1Nc1cccc(S(=O)(=O)NC(C)(C)C)c1	-77*
70	Fc1ccccc1-c1nc2ccn(Cc3ccc(-c4ccc(C(F)(F)F)cc4C(F)(F)F)nn3)cc-2n1	21
71	Nc1ccc(S(=O)(=O)Nc2nccs2)cc1	-12&-15

Not all compounds are listed; the hit share may differ from the screen's.
